High-throughput results (PubChem BioAssay)
GIRK2 act = opens human GIRK2 potassium channels | P48051 | HEK293-GIRK2 thallium flux, Thallos fluorescence | calls only for hits at 25 µM | 63,000 compounds, 0.05% hits | AID 1259325;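 active = among the strongest 0.2% of first-round signals and kept after retests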;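 note: first round at about 10 µM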
Target sequence (P48051 whole entry, looked up): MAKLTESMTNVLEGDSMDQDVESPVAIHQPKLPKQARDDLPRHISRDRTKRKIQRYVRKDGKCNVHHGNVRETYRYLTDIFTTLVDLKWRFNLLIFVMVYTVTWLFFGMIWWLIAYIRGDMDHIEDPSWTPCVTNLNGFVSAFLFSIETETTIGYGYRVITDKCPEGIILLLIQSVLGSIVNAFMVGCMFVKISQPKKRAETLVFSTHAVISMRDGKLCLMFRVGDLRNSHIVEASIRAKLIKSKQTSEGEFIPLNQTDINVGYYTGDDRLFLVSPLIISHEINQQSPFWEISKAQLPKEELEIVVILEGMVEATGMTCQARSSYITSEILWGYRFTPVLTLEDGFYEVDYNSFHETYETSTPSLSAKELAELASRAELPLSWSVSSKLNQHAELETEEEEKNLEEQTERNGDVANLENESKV
Calls only; i = inactive.

SMILES | GIRK2 act
CCOC(=O)c1oc2cc(OC(=O)c3ccccc3OC)ccc2c(=O)c1-c1ccccc1OC | i
O=C1CCc2ccc(OCc3ccccc3Cl)cc21 | i
CCCNC(=O)CSC1=Nc2ccccc2NC(CC(=O)OC)=C1 | i
COc1ccc(NC(=O)CSc2nccn2-c2cccc(C(=O)NCc3ccccc3)c2)cc1 | i
COc1cccc(C(=O)N2CC(c3nc(-c4ccccn4)no3)C2)c1 | i
O=C(Nc1cccc(-c2nc3ccccc3s2)c1)c1cc(-c2ccco2)on1 | i
COc1cc(C)c(C)cc1S(=O)(=O)NCC1CCN(c2cnccn2)CC1 | i
O=C(NCCOc1cccc2cccnc12)c1cc(Cl)ccc1Cl | i
O=C(NCCCS(=O)(=O)N1CCN(c2ccccn2)CC1)c1cc2ccccc2oc1=O | i
COC(=O)c1ccc(NCCC(=O)O)c([N+](=O)[O-])c1 | i
Cc1ccc(-c2ccc(N3CCN(S(=O)(=O)CCc4ccccc4)CC3)nn2)cc1C | i
Cc1cccc(C(=O)NC(=S)N2CCN(C(=S)c3ccc(N(C)C)cc3)CC2)c1 | i

A draw from above in order of molecular weight, rising:
SMILES | GIRK2 act
O=C1CCc2ccc(OCc3ccccc3Cl)cc21 | i
CCCNC(=O)CSC1=Nc2ccccc2NC(CC(=O)OC)=C1 | i
COc1cc(C)c(C)cc1S(=O)(=O)NCC1CCN(c2cnccn2)CC1 | i

More compounds.
SMILES | GIRK2 act
O=C(c1ccccc1)N1CCN(Cc2nncn2-c2ccccc2)CC1 | i
Cc1cc(C)cc(C(=O)N2CCN(CC(O)C3CC3)CC2)c1 (centres undefined) | i
Cc1ccc(-n2ncc3c(=O)n(CC(=O)N4CCN(c5ccccc5)CC4)cnc32)cc1C | i
O=S(=O)(c1cccc(Cl)c1Cl)N1CCN(c2ccc(-c3ccccc3)nn2)CC1 | i
COC(=O)c1cc(O)cc(O)c1C(=O)c1c(O)c(Cl)c(C)c(Cl)c1OC | i
COC(=O)c1c(NC(=O)C2Oc3ccccc3OC2C)sc(C)c1C (centres undefined) | i
Cn1c(=O)[nH]c(=O)c2c1nc(NCCCN1CCOCC1)n2CCCOc1ccccc1 | i
CCOC(=O)N1CCN(C(=O)CN2CC(c3nc(-c4ccco4)no3)C2)CC1 | i
CN(C)CC1CSCCCN1C(=O)c1cc2ccccc2oc1=O (centres undefined) | i
COC(=O)C(Cc1ccc(O)cc1)NC(=O)c1ccc(OC)c(OC)c1 (centres undefined) | i
O=C(COC(=O)c1ccco1)Nc1ccc2c(c1)OCO2 | i
Cc1ccc(S(=O)(=O)NCCC(=O)N2CCCCC2)c(C)c1N(C)S(C)(=O)=O | i
CC(C)c1ccc(NC(=O)c2csc(Nc3ccc(S(C)(=O)=O)cc3)n2)cc1 | i
COc1cccc2c(SCC(=O)NCCc3ccccc3)nccc12 | i
Cc1ccc(C)c(N2CCN(S(=O)(=O)CCOc3ccccc3)CC2)c1 | i
O=C(NCc1ccco1)c1c2c(nn1C1CCS(=O)(=O)C1)CCC2 (centres undefined) | i
COc1cccc(N2CCN(C(=O)C3C(=O)N(C)C4(C)CC3c3ccccc3O4)CC2)c1 (centres undefined) | i
COc1ccc(CN2C(=O)c3cccc4cccc(c34)C2=O)cc1S(=O)(=O)N1CCCCCC1 | i
O=S(=O)(c1ccc2c(c1)CCCC2)N1CCN(c2cc(N3CCCC3)ncn2)CC1 | i
COC(=O)c1ccc(CN(c2cccc(C)c2)S(=O)(=O)c2cccn3c(C)nnc23)o1 | i
COc1cccc(CNC(=O)C(=O)NCCC2CCCCN2S(=O)(=O)c2ccc(C)cc2)c1 (centres undefined) | i
N#C/C(=C\Nc1cccc(Cl)c1)c1nc2ccccc2s1 | i
Cc1ccc(N2CCCn3c2nc2c3c(=O)[nH]c(=O)n2C)cc1Cl | i
Cn1ccnc1SCC1CCN(S(=O)(=O)c2ccc(C(C)(C)C)cc2)CC1 | i

A different layout for some results above:
GIRK2 act,SMILES
i,COc1cccc2c(SCC(=O)NCCc3ccccc3)nccc12
i,N#C/C(=C\Nc1cccc(Cl)c1)c1nc2ccccc2s1
i,Cc1ccc(N2CCCn3c2nc2c3c(=O)[nH]c(=O)n2C)cc1Cl
i,COC(=O)c1ccc(CN(c2cccc(C)c2)S(=O)(=O)c2cccn3c(C)nnc23)o1
i,CC(C)c1ccc(NC(=O)c2csc(Nc3ccc(S(C)(=O)=O)cc3)n2)cc1
i,Cn1ccnc1SCC1CCN(S(=O)(=O)c2ccc(C(C)(C)C)cc2)CC1
i,O=S(=O)(c1ccc2c(c1)CCCC2)N1CCN(c2cc(N3CCCC3)ncn2)CC1

The listing picks up; the 4 compounds before the break are reprinted first.
SMILES | GIRK2 act
COc1cccc(CNC(=O)C(=O)NCCC2CCCCN2S(=O)(=O)c2ccc(C)cc2)c1 (centres undefined) | i
N#C/C(=C\Nc1cccc(Cl)c1)c1nc2ccccc2s1 | i
Cc1ccc(N2CCCn3c2nc2c3c(=O)[nH]c(=O)n2C)cc1Cl | i
Cn1ccnc1SCC1CCN(S(=O)(=O)c2ccc(C(C)(C)C)cc2)CC1 | i
O=C(CN1C(=O)c2ccccc2C1=O)N1CCN(Cc2nc(-c3ccccc3)cs2)CC1 | i
CCOCC(=O)N1CCC(CSCc2ccco2)CC1 | i
CCSc1nc2n(n1)C(c1ccc(C(=O)O)cc1)C(C(=O)Nc1ccccc1OC)=C(C)N2 (centres undefined) | i
COc1ccc(NC(=O)NC(c2ccccc2)c2ccccc2)cc1N1CCCC1=O | i
O=C(CN1CCC(c2nc(-c3ccc(F)cc3)no2)CC1)Nc1cccc(Cl)c1 | i
COc1ccc(-c2ccc(C(=O)Nc3cc(C)cc(C)c3)o2)c([N+](=O)[O-])c1 | i
COc1ccc(CC(C)(O)CNC(=O)C2CC2)cc1 (centres undefined) | i
Cc1cc2cc(CCNC(=O)c3ccc(S(=O)(=O)N(C)C)cc3)c(=O)[nH]c2cc1C | i
O=C(Cn1nc2c(c1NC(=O)COc1ccc(Cl)cc1)CSC2)NCc1ccc(F)cc1 | i
Cc1ccc(OCC(=O)Nc2cc(N3CCC(C)CC3)ncn2)cc1C | i
Cc1ccc(-n2ncc3c(=O)n(Cc4nc(-c5ccc(F)c(Br)c5)no4)cnc32)cc1 | i
Cc1cc(NC(=O)c2cc3ccccc3oc2=O)n(-c2nc3ccccc3s2)n1 | i
COc1cc2ccccc2cc1C(=O)Nc1ccc(Cl)cc1 | i
CC(Cn1nc(-c2ccco2)ccc1=O)C(=O)Nc1ccc(F)c(C(F)(F)F)c1 (centres undefined) | i
COc1ccc(S(=O)(=O)Nc2ccc3c(c2)CCCN3C(=O)c2ccccc2)cc1 | i
Cc1cc(C(=O)N2CCN(CCc3nc(-c4cccs4)cs3)CC2)c(C)o1 | i
COc1ccc(Nc2cc(C(=O)N3CCCCC3)nc3ccc(OC)cc23)cc1 | i
COc1cc(NC(=O)Cn2ccn3nc(-c4ccccc4)cc3c2=O)cc(OC)c1 | i
O=C(NCCc1cccs1)C1CCCN(Cc2nc(-c3ccncc3)no2)C1 (centres undefined) | i
N=C1SC2CS(=O)(=O)CC2N1c1ccc(OC(F)(F)F)cc1 (centres undefined) | i
CCCn1c(-n2nc(CC)cc2CC)nc2c1c(=O)n(CC(=O)OC)c(=O)n2C | i
COc1cccc(C2C(=C(O)c3ccc4c(c3)OCCO4)C(=O)C(=O)N2CCN(C)C)c1 (centres undefined) | i
O=C(CCCCn1c(=O)c2ccccc2n(Cc2c(F)cccc2Cl)c1=O)NC1CCCC1 | i
Cc1ccc(NC(=O)CSc2nnc3ccc(C(=O)Nc4cccc(F)c4)cn23)c(Cl)c1 | i
CCc1ccc(NC(=O)Cn2cc(S(=O)(=O)c3ccccc3)c(=O)c3cc(OC)ccc32)cc1 | i
COCCn1c(-n2nc(C)cc2C)nc2c1c(=O)n(CC(=O)OC)c(=O)n2C | i
COc1ccc(OC)c(-c2cc(C(=O)Nc3cc(N4CCCC4)ncn3)n(C)n2)c1 | i
COc1ccc(-c2nc3ccccc3n2CC(=O)N2CCCC2)cn1 | i
Cc1cc(C)n(-c2ccc(N3CCC(C(=O)NCc4ccco4)CC3)nn2)n1 | i
O=C(Cn1ccc2ccccc21)N1CCN(CCn2cccn2)CC1 | i
O=C(CCc1nc2sc3c(c2c(=O)[nH]1)CCCCC3)Nc1ccc(Cl)cc1 | i
COc1nn(C)cc1C(=O)Nc1ccc2c(c1)C(=O)N1CCCCC1CCO2 (centres undefined) | i
Cc1nn2c(Cl)cc(C(C)C)nc2c1-c1ccccc1 | i
O=C(O)c1cc2cc(Br)ccc2oc1=O | i
CC(C)CCOc1ccc(N2CCn3c2nc2c3c(=O)n(C)c(=O)n2C)cc1 | i
COC(=O)Cn1c(=O)c2c(nc3n(-c4cccc(C)c4)c(C)c(C)n23)n(C)c1=O | i

Brought forward from above: 4 entries, then new ones.
SMILES | GIRK2 act
Cc1nn2c(Cl)cc(C(C)C)nc2c1-c1ccccc1 | i
O=C(O)c1cc2cc(Br)ccc2oc1=O | i
CC(C)CCOc1ccc(N2CCn3c2nc2c3c(=O)n(C)c(=O)n2C)cc1 | i
COC(=O)Cn1c(=O)c2c(nc3n(-c4cccc(C)c4)c(C)c(C)n23)n(C)c1=O | i
O=C(NCCC(O)C1CC1)c1ccccn1 (centres undefined) | i
COc1ccccc1N1CCN(C(=O)Cn2c(=O)nc(-c3ccccc3)c3ccccc32)CC1 | i
COc1ccc(N2CC(c3nc(-c4ccc(OC)cc4OC)no3)CC2=O)cc1 (centres undefined) | i
COc1ccc(Br)c(C(=O)N2CCC(Cn3ccnc3C)CC2)c1 | i
CCc1cc2c(=O)c(-c3ccc4c(c3)OCCCO4)coc2cc1OC(=O)c1ccco1 | i
COc1ccc(C2CCN(C(=O)Nc3cccc(C(F)(F)F)c3)C2)cc1 (centres undefined) | i
CC(=O)c1ccc(NC(=O)c2ccc(N3C(=O)c4ccccc4C3=O)cc2)cc1 | i
COC(=O)c1sccc1S(=O)(=O)N1CCCC(c2nnc(C)s2)C1 (centres undefined) | i
COCCN1CCC(CNC(=O)c2cccc(OC)c2)CC1 | i
CC(O)(CCc1ccccc1)CNC(=O)CSc1ccc(F)cc1 (centres undefined) | i
c1ccc2c(c1)ncn2CC1CCN(Cc2cn3ccccc3n2)CC1 | i
NC(=O)c1nnn(-c2ccc(NC(=O)c3ccc(OC(F)(F)F)cc3)cc2)n1 | i
Cc1cccc(NC(=O)Cn2nc(-c3ccco3)c3sc(N4CCCC4)nc3c2=O)c1 | i
COc1ccccc1OCC(=O)N1CCN(C(=O)C2CC2c2ccccc2)CC1 (centres undefined) | i
COCCCNC(=O)c1c(N)n(/N=C\c2ccc(Cl)cc2)c2nc3ccccc3nc12 | i
CC(=O)c1cccc(NC(=O)CSc2cc(C)c3ccccc3n2)c1 | i
COCCNC(=O)Cn1cc(-c2nc(C)no2)ccc1=O | i
CN(Cc1ccccc1)S(=O)(=O)c1cc2c3c(c1)CCC(=O)N3CCC2 | i
COc1ccccc1-c1nnc(C2CCN(C(C)=O)CC2)s1 | i
Cn1c(=O)c(C(=O)Nc2ccc(Cl)c(C(F)(F)F)c2)c(O)c2sccc21 | i
COCC(=O)N1CCN(Cc2csc(-c3ccccc3)n2)CC1 | i
CCc1nc2sc(C(c3ccc(C(F)(F)F)cc3)N3CCN(CC)CC3)c(O)n2n1 (centres undefined) | i
COc1cccc(CSc2nc(CC(=O)Nc3ccc(C(C)C)cc3)cc(=O)[nH]2)c1 | i
O=C(Cn1nc(C(=O)N2CCOCC2)cc1-c1cccs1)NCCCn1ccnc1 | i
CCCCCNc1nc2c(c(=O)[nH]c(=O)n2C)n1CC(O)COC(C)C (centres undefined) | i
O=C(NCC1(c2ccc(F)cc2)CCOCC1)c1cc(-c2ccccc2)on1 | i
CC(C)c1ccc(NC(=O)Cn2nc3c4ccc(Cl)cc4ncn3c2=O)cc1 | i
Cc1cn2c3c(=O)n(C/C=C/c4ccccc4)c(=O)n(C)c3nc2n1CCCN1CCOCC1 | i
CC(C)Oc1ccc2c(=O)c(-c3ccccc3)coc2c1 | i
N#C/C(=C\c1cc(Br)cc2c1OCOC2)c1nc2ccccc2s1 | i
Cc1c(-c2nc(-c3ccc4c(c3)OCO4)cs2)nnn1-c1ccccc1 | i
Cc1noc(C2(NC(=O)c3ccco3)CCCCC2)n1 | i
COc1cc(OC)c(NC(=O)Cn2nc3c(Sc4cccc(C)c4)nccn3c2=O)cc1Cl | i
COc1cccc(C(O)=C2C(=O)C(=O)N(c3ccccn3)C2c2ccccc2OC)c1 (centres undefined) | i
CCOC(=O)c1c(NCCN2CCOCC2)c2ccc(Cl)cc2[nH]c1=O | i
O=C(Cn1nc(N2CCSCC2)c2ccccc2c1=O)Nc1cccc(Cl)c1 | i
CS(=O)(=O)c1ccc(Nc2nc(C(=O)N3CCN(c4ncccn4)CC3)cs2)cc1 | i
COc1ccc(S(=O)(=O)N2CCCC2CNC(=O)c2cccc(F)c2)cc1 (centres undefined) | i
COc1cccc(C(=O)NCC(O)c2ccoc2)c1OC (centres undefined) | i
COc1nn(C)cc1C(=O)Nc1nnc(SCC(=O)NCc2ccc3c(c2)OCO3)s1 | i
COc1ccc(Oc2coc3cc(OCC(=O)c4ccccc4)ccc3c2=O)cc1 | i
O=S(=O)(CC1CCCN1S(=O)(=O)C1CC1)c1ccccc1 (centres undefined) | i
COc1cccc(COc2coc(C(=O)NCCc3ccc(OC)c(OC)c3)cc2=O)c1 | i
Cc1cc(NC(=O)c2ccc3c(c2)OCO3)sn1 | i
O=C(CSCc1ccccc1)N1CC(c2nc(-c3cccc(C(F)(F)F)c3)no2)C1 | i
COCCCN1COc2ccc3c(=O)c(Oc4ccc(OC)cc4)coc3c2C1 | i
CCN(CC)C(=O)c1cnc2ccc(F)cc2c1S(=O)(=O)c1ccc(Br)cc1 | i
CSc1nnc(-c2ccccc2NC(C)=O)o1 | i
CCOC(=O)C1CCN(C(=O)C2COCC(=O)N2Cc2cccs2)CC1 (centres undefined) | i
CN(C)CC1CSCCCN1S(=O)(=O)c1cccc(Cl)c1 (centres undefined) | i
O=C(NCc1cccc2ccccc12)NCC1(O)CCOc2ccccc21 (centres undefined) | i

This is a subset; the hit share may differ from the screen's.
